Screens deposited in PubChem by National Center for Advancing Translational Sciences (NCATS).
VDR inhibitor: inhibitors of human vitamin D receptor | P11473 | VDR-SRC2-3 peptide fluorescence polarization, 2 h | Potency, µM, without a hit: max response, negative = inhibition, actives largely listed as inhibitors | 400,000 compounds, 0.93% hits | AID 504847; active means well fitted inhibition curve with a large enough effect; inconclusive means small, poorly fitted or top-dose-only effect, or another doubt; inactive means no such curve, though single readings can be large or run the other way; further: series mostly up to about 120 µM
Target sequence (P11473 whole entry, looked up): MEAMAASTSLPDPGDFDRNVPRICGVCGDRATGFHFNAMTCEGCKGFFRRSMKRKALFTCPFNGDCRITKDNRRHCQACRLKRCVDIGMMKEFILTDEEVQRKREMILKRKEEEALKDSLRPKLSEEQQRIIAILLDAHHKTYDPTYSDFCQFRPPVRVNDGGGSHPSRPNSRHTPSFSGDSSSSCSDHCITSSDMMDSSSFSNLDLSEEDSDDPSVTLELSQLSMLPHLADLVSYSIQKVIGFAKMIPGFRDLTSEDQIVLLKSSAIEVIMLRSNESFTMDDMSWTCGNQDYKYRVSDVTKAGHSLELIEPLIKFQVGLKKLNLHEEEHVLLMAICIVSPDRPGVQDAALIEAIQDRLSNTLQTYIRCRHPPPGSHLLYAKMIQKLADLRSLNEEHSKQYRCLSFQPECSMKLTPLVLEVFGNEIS
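Two reagent solutions held at 4 deg C in the dark were dispensed, compounds pinned at 23 nl, and the mixture incubated 2 h at room temperature. Read-out: fluorescence polarization of VDR–SRC2-3 peptide binding.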
* = called active by the depositor; & = joins results of further samples; ! = a repeat was not active; [ ] = remark or other dose. On the % scale 0 is the no-effect control and ±100 the full control effect; potency means the concentration at half of the fitted maximal effect. An excerpt; rates above refer to the full screens.

Results for CCC(C)C(=O)OC1C(O)C2C(CN3CC(C)CCC3[C@]2(C)O)C2C[C@]34O[C@@]5(O)C(OC(=O)C(C)(O)CC)CCC3(C)C5C(OC(C)=O)C(OC(C)=O)C4[C@@]21O (stereo not given in full) ?
VDR inhibitor: 2%

How did CN1CCC2(CC1)CCN(C(=O)Oc1ccccc1)CC2 do in these assays?
VDR inhibitor: 9%

How did O=C1NCN(c2ccccc2)C12CCNCC2 do in these assays?
VDR inhibitor: -6%

How did CCCCC12CN3CC(C)(CN(C1)C3c1ccccn1)C2=O (stereo not given) do in these assays?
VDR inhibitor: -3%

How did O=C(NC(O)C(Cl)(Cl)Cl)NC(O)C(Cl)(Cl)Cl (stereo not given) do in these assays?
VDR inhibitor: 2%

What do the screens show for `CCCCCCCCCOc1ccc2[nH]cc(CCN)c2c1`?
VDR inhibitor: 120%&92%[activator]

How did CC(=NCCN1CCCCC1)c1c(O)n(Cc2ccccc2)c(=O)[nH]c1=O do in these assays?
VDR inhibitor: 5%

Results for O=c1[nH]c(O)c(N=Nc2ccc([N+](=O)[O-])cc2)c(=O)[nH]1 ?
VDR inhibitor: 4%

How did CC(=NCCN(C)C)c1c(O)n(Cc2ccccc2)c(=O)[nH]c1=O do in these assays?
VDR inhibitor: -10%

Results for Cc1cc(C)cc(N2C(=O)NC(=O)/C(=C\c3cccn3-c3ccccc3)C2=O)c1 ?
VDR inhibitor: -8%

What do the screens show for `CN1C(=O)[C@]23CC4=CC=C[C@H](O)[C@H]4N2C(=O)[C@@]1(CO)SS3`?
VDR inhibitor: 4µM*

How did O=C(COc1ccccc1Cl)N1CCN(CCc2ccccn2)CC1 do in these assays?
VDR inhibitor: 6%

Results for COC(=O)CCCc1[se]c2ccccc2c1I ?
VDR inhibitor: 0%

Results for CCCCC1(CCCC)C(=O)NC(=Nc2cccc(C)c2)NC1=O ?
VDR inhibitor: -7%

Results for CCN(CC)CCN=Cc1c(O)n(C2CCCCCC2)c(=O)[nH]c1=O ?
VDR inhibitor: 17%

How did O=C1C2CCCN2C(c2cccnc2)N1c1ccc(Cl)cc1 (stereo not given) do in these assays?
VDR inhibitor: 0%

Results for CCCCCCC(=O)N/N=C/c1c(O)n(CCc2ccccc2)c(=O)[nH]c1=O ?
VDR inhibitor: -3%

Results for NC(=O)c1ccc(NC(=O)c2cccn(Cc3ccccc3)c2=O)cc1 ?
VDR inhibitor: 19%

How did Cc1nn(-c2ccccc2)c2c1C(c1ccc(F)cc1F)C(C#N)=C(N)O2 (stereo not given) do in these assays?
VDR inhibitor: inconclusive

How did CCOc1cc(C=C2C(=O)NC(=O)NC2=O)ccc1OCC(=O)N1CCOCC1 do in these assays?
VDR inhibitor: inconclusive

What do the screens show for `O=C(O)[C@@H]1C[C@H]1[C@@H](NP(=O)(c1ccccc1)c1ccccc1)c1ccccc1`?
VDR inhibitor: -11%

How did O=[N+]([O-])c1ccc(-[n+]2c(-c3ccccc3)cc(-c3ccccc3)cc2-c2ccccc2)cc1 do in these assays?
VDR inhibitor: -43%

What do the screens show for `CC1COC2=C1C(=O)C(=O)c1c2ccc2c1CCCC2(C)C` (stereo not given)?
VDR inhibitor: 7.1µM*

What do the screens show for `COC(=O)C1=C(c2ccc(OC(F)(F)F)cc2)C[C@@H]2CC[C@H]1N2C(=O)NC1CCCCC1`?
VDR inhibitor: 10%

What do the screens show for `O=[N+]([O-])c1ccc(NCc2ccc(Cl)cc2)c2ccncc12`?
VDR inhibitor: 7%

How did CC(C)(C)n1cc(C(=O)c2ccc3ccccc3c2O)cn1 do in these assays?
VDR inhibitor: -1%

Results for CC1=NN(c2ccccc2)C(=O)/C1=C/c1c(O)[nH]c(=O)[nH]c1=O ?
VDR inhibitor: -9%

Results for CC1CCC(C(=O)NC(C(=O)N2CCC3(CC2)OCCO3)C(C)C)CC1 (stereo not given) ?
VDR inhibitor: -21%

How did CCC(C)n1c(O)c(C=Nc2cccc(C(F)(F)F)c2)c(=O)[nH]c1=S (stereo not given) do in these assays?
VDR inhibitor: -30%

What do the screens show for `COc1ccc(-n2c(O)c(C=NCCN3CCN(C(C)=O)CC3)c(=O)[nH]c2=S)cc1`?
VDR inhibitor: 6%

How did COC(=O)C1=C(c2cccc(C#N)c2)C[C@@H]2CC[C@H]1N2C(=O)N1CCC(C)CC1 do in these assays?
VDR inhibitor: 17%

Results for CC(C)NC(=O)N1CCCC2(CCN(C(=O)Oc3ccccc3)CC2)C1 ?
VDR inhibitor: -9%

Results for COc1ccc(C(=O)C2CCCN(Cc3ccsc3)C2)cc1OC (stereo not given) ?
VDR inhibitor: 0%

Results for CCCCn1c(O)c(/C=N/NC(=O)c2ccncc2)c(=O)[nH]c1=O ?
VDR inhibitor: -2%

How did C=Cn1ccnc1P(=S)(c1cc(N(CC)CC)ns1)c1nccn1C=C do in these assays?
VDR inhibitor: 17%

How did C[C@]12CC[C@@H](O)C[C@@H]1CC[C@@H]1[C@@H]2CC[C@]2(C)[C@@H](O)CC[C@@H]12 do in these assays?
VDR inhibitor: -1%

Results for Cc1cccc(N=Nc2ccc(N(C)C)cc2)c1 ?
VDR inhibitor: 0%

How did CC(=O)OCC1=C(C(=O)O)N2C(=O)[C@@H](N)[C@@H]2SC1 do in these assays?
VDR inhibitor: -2%

Results for COc1ccc2[nH]c3c(c2c1)CCNC3 ?
VDR inhibitor: -19%&-16%

What do the screens show for `CCC1(CC)C(=O)N(Cc2ccccc2)C(=O)N(Cc2ccccc2)C1=O`?
VDR inhibitor: 18%

Retrieved by structure from above:
Results for CCCCn1c(O)c(/C=N/NC(=O)c2ccncc2)c(=O)[nH]c1=O ?
VDR inhibitor: -2%

What do the screens show for `O=[N+]([O-])c1ccc(NCc2ccc(Cl)cc2)c2ccncc12`?
VDR inhibitor: 7%

How did CCC(C)n1c(O)c(C=Nc2cccc(C(F)(F)F)c2)c(=O)[nH]c1=S (stereo not given) do in these assays?
VDR inhibitor: -30%

Results for CC1=NN(c2ccccc2)C(=O)/C1=C/c1c(O)[nH]c(=O)[nH]c1=O ?
VDR inhibitor: -9%

Results for COc1ccc2[nH]c3c(c2c1)CCNC3 ?
VDR inhibitor: -19%&-16%

What do the screens show for `O=C(O)[C@@H]1C[C@H]1[C@@H](NP(=O)(c1ccccc1)c1ccccc1)c1ccccc1`?
VDR inhibitor: -11%

What do the screens show for `COc1ccc(-n2c(O)c(C=NCCN3CCN(C(C)=O)CC3)c(=O)[nH]c2=S)cc1`?
VDR inhibitor: 6%

Additional records:
How did Cc1ccc(NC(=O)CN2C(=O)CN=C(c3ccccc3)c3cc(Cl)ccc32)cc1 do in these assays?
VDR inhibitor: -9%

How did C/C=C(\C)C(=O)N[C@@H](c1ccccc1)[C@@H](O)C(=O)O[C@H]1C[C@@]2(O)[C@@H](OC(=O)c3ccccc3)C3[C@](C)(C(=O)[C@H](OC(C)=O)C(=C1C)C2(C)C)[C@H](O)C[C@H]1OC[C@@]31OC(C)=O (stereo not given in full) do in these assays?
VDR inhibitor: -3%

How did CCN1C[C@]2(C)CC[C@H](O)[C@@]34[C@@H]5CC6[C@@H](OC)C[C@@](O)([C@@H]5[C@@H]6O)[C@H](C[C@@H]23)[C@H]14 do in these assays?
VDR inhibitor: 0%

What do the screens show for `Cc1nn(Cc2ccccc2)c(Cl)c1C(=O)OCC(=O)NCC1CCCO1` (stereo not given)?
VDR inhibitor: -20%

Results for C/C(=N\NC(N)=O)c1c(O)n(C)c(=O)n(C)c1=O ?
VDR inhibitor: -10%

How did CCCCc1nc2ccccc2c(=O)n1-c1ccccc1O do in these assays?
VDR inhibitor: -7%

Results for O=C(c1sc2ccccc2c1Cl)N1CCC2(CC1)OCCO2 ?
VDR inhibitor: 5%

Results for Cc1cc(/C=C2\C(=O)NC(=O)N(c3ccc(Br)cc3)C2=O)c(C)n1C ?
VDR inhibitor: 14%

What do the screens show for `COC1CCC(OC2CC(C3(C)CCC4(CC(O)C(C)C(C(C)/C=C(\C)C(=O)C(C)CC(C)C(=O)O)O4)O3)OC3(OC(C4OC(O)(CO)C(C)CC4C)CC3C)C2C)OC1C` (stereo not given)?
VDR inhibitor: -2%

Results for COc1c(CC=C(C)C)c2c(c3oc(=O)c(-c4ccc(O)cc4)c(O)c13)C=CC(C)(C)O2 ?
VDR inhibitor: inconclusive

How did COc1ccccc1OCCCn1cc(C=O)c2ccccc21 do in these assays?
VDR inhibitor: 5%

Results for COc1ccccc1N1CCN(Cc2ccc(Cl)cc2Cl)CC1 ?
VDR inhibitor: 9%

Results for CN1CCN(C(=O)COc2ccc(Oc3ccccc3)cc2)CC1 ?
VDR inhibitor: inconclusive

Results for O=C(Nc1nc2ccccc2s1)c1cccn(Cc2ccccc2)c1=O ?
VDR inhibitor: 0%

How did CCC(C)c1ccc(N2C(=O)NC(=O)/C(=C/c3cccn3CCOc3ccc(C)cc3)C2=O)cc1 (stereo not given) do in these assays?
VDR inhibitor: 26%

How did CC(=O)Nc1ccc(OC(=O)N(C)c2ccc(C)cc2)cc1 do in these assays?
VDR inhibitor: -15%

What do the screens show for `CC(O)(CS(=O)(=O)c1cccc(C(F)(F)F)c1)C(=O)Nc1cccc(C(F)(F)F)c1` (stereo not given)?
VDR inhibitor: 15%

Results for NC1CCCCC1N (stereo not given) ?
VDR inhibitor: -1%

What do the screens show for `C[N+](C)(C)CC(=O)Nc1ccc(Cl)cc1C(=O)c1ccccc1`?
VDR inhibitor: -5%

How did COC(=O)C1=C(c2cccc(OCc3ccccc3)c2)C[C@@H]2CC[C@H]1N2C(=O)NCc1ccccc1C(F)(F)F do in these assays?
VDR inhibitor: -25%

What do the screens show for `CSc1nnc([C@@H](N)Cc2c[nH]c3ccccc23)o1`?
VDR inhibitor: -2%

What do the screens show for `CC(=O)Nc1c2sscc-2n(C)c1=O`?
VDR inhibitor: 40µM*

What do the screens show for `CC1(C(=O)O)CC12c1ccccc1-c1ccccc12` (stereo not given)?
VDR inhibitor: -22%

What do the screens show for `COC(=O)C1=C(c2ccccc2)C[C@@H]2CC[C@H]1N2C(=O)N1CCCCC1`?
VDR inhibitor: -12%

What do the screens show for `c1ccc2c(c1)Sc1ccccc1N2CC1CN2CCC1CC2` (stereo not given)?
VDR inhibitor: -12%

What do the screens show for `CCCCC/C=C\C/C=C\C/C=C\C/C=C\CCCC(=O)NCCO`?
VDR inhibitor: 71µM*!

What do the screens show for `COc1cc(OC)c(OC)cc1CNC(C)C(O)c1ccccc1` (stereo not given)?
VDR inhibitor: 26%

Results for CC(=O)Nc1ccccc1C(=O)OCC(=O)Nc1ncccn1 ?
VDR inhibitor: -8%

What do the screens show for `Fc1ccc(CNCCc2ccccc2)cc1`?
VDR inhibitor: 2%

Results for COC(=O)C1=C(c2cccc(OCc3ccccc3)c2)C[C@@H]2CC[C@H]1N2C(=O)NCc1ccc(OC)cc1 ?
VDR inhibitor: inconclusive

What do the screens show for `O=C1C2CCN(CC2)C1Cc1ccc(OCc2ccccc2)cc1` (stereo not given)?
VDR inhibitor: 9%

How did CCCCn1c(O)c(/C=C/C=Nc2ccccc2)c(=O)[nH]c1=O do in these assays?
VDR inhibitor: -11%

What do the screens show for `Cc1ccc(OCC(=O)NCCN2CCN(C(=O)COc3ccc(C)cc3)CC2)cc1`?
VDR inhibitor: 3%

What do the screens show for `CC(C)CN1CC[C@@]2(CCCN(C(=O)c3ccncc3)C2)C1`?
VDR inhibitor: 3%

What do the screens show for `CCCCC/C=C\C/C=C\C/C=C\C/C=C\CCCC(=O)NCc1ccoc1`?
VDR inhibitor: 22µM*

How did COc1ccc(C(=O)OC2CC3CCC(C2)[N+]3(C)[O-])cc1OC (stereo not given) do in these assays?
VDR inhibitor: 24%

What do the screens show for `Cc1ccccc1-n1c(/C=C/c2ccccn2)nc2ccccc2c1=O`?
VDR inhibitor: 1%

How did CCCCSC1=NN1c1nc(N)nc(C)c1CC do in these assays?
VDR inhibitor: 1%

How did COc1ccc(S(=O)(=O)N2Cc3cnnn3-c3ccccc3C2C#N)cc1 (stereo not given) do in these assays?
VDR inhibitor: -5%

Results for COc1ccc(C(CNC(=O)Cc2ccc(Cl)c(Cl)c2)N(C)C)cc1 (stereo not given) ?
VDR inhibitor: -23%

Results for CN1CCN(CC(=O)Nc2ccc([N+](=O)[O-])cc2C(=O)c2ccccc2)CC1 ?
VDR inhibitor: 8%

How did Cc1cc(NC(=O)CCl)on1 do in these assays?
VDR inhibitor: 0%

Results for O=C1NC(=O)C(=Cc2ccc(-c3ccc(Cl)cc3)o2)C(=O)N1 ?
VDR inhibitor: inconclusive

How did Cc1c(Cl)c(=O)oc2cc(OP(=O)(OCCCl)OCCCl)ccc12 do in these assays?
VDR inhibitor: -20%

How did CCCCn1c(O)c(C(C)=NCCN2CCOCC2)c(=O)[nH]c1=O do in these assays?
VDR inhibitor: 14%

What do the screens show for `CC[C@H]1CN(C)CCc2c([nH]c3ccccc23)C(=O)C[C@@H]1/C(=C\OC)C(=O)OC`?
VDR inhibitor: -22%

How did CCN(CCNc1ccc([N+](=O)[O-])c2cccnc12)S(=O)(=O)c1ccccc1 do in these assays?
VDR inhibitor: -5%

How did CCOP(=O)(OCC)C1(O)C(=O)Nc2ccc(Br)cc21 (stereo not given) do in these assays?
VDR inhibitor: -3%

How did O=C1CN=C(c2ccccc2Cl)c2cc(Br)ccc2N1 do in these assays?
VDR inhibitor: -7%

Results for COc1ccc(NC(=O)CCc2nc(C3=CCN(Cc4cccc(C)c4)CC3)no2)c(OC)c1 ?
VDR inhibitor: 11%

What do the screens show for `CCOP(=O)(OCC)C(c1ccccc1)N(C)C=O` (stereo not given)?
VDR inhibitor: 4%

Results for COc1cccc(C2(O)CCSCC2CN(C)C)c1 (stereo not given) ?
VDR inhibitor: -9%

How did c1ccc2c(CCNCc3ccc4c(c3)OCO4)c[nH]c2c1 do in these assays?
VDR inhibitor: -8%

How did CC(CC(C#N)(c1ccccc1)c1ccccc1)N(C)C (stereo not given) do in these assays?
VDR inhibitor: 3%

How did N#CCCn1cc(C(=O)Nc2ccc([N+](=O)[O-])cc2)c(-c2ccccc2)n1 do in these assays?
VDR inhibitor: -11%
